Assay outcomes (PubChem BioAssay)
DUX4 txn inh: DUX4-mediated transcription inhibition | 293T-iDUX4 ZSCAN4-Gaussia luciferase reporter, 24 h; active compounds read low | activity change, negative = inhibition, % (no concentration beside the values) | 0.8% of 37,000 active;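 active means -10% or lower and over 25 points stronger than a control reporter; inconclusive means -10% or lower with a smaller gap; inactive means above -10%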;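 further: 0% = median of neutral control wells and -100% = median of positive control wells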
DUX4 txn inh difference: recorded beside DUX4 txn inh, whose call it bears; Gaussia minus Italica difference, %; measured here: selective DUX4 reporter inhibition;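 worked out from the two reporters; negative = selective loss of the DUX4 reporter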
DUX4 txn inh control: recorded beside DUX4 txn inh, whose call it bears; activity change, negative = inhibition, %; measured here: Italica tet-on control reporter;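 0 = neutral control and -100 = positive control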
* marks the source's active call; other numbers are inactive results; ? = inconclusive; . = not tested or not shown; & = joins results of further samples. These rows are one share of the data, so the mix of outcomes need not match the whole.

Order of values – DUX4 txn inh | DUX4 txn inh difference | DUX4 txn inh control
- C[C@@H]1CN([C@@H](C)CO)C(=O)c2cc(C3=CCCCC3)cnc2O[C@@H]1CN(C)S(=O)(=O)c1cn(C)cn1
  -2 | -3 | 1.4
- COc1ccc(NC(=O)N2C[C@H](O)COC[C@@H]3O[C@H](CC(=O)NCc4ccncn4)CC[C@H]32)cc1
  4 | -2 | 5.8
- CCS(=O)(=O)N1[C@H](CO)[C@@H](c2ccccc2)C12CN(C(=O)C1CC1)C2
  -3 | -4 | 0.6
- CO[C@@H](CN(C)C(=O)C1CCOCC1)[C@@H](C)CN(C(=O)Nc1ccc(F)cc1)[C@@H](C)CO
  -5 | -3 | -1.7
- O=C(C[C@H]1CC[C@@H]2[C@H](COC[C@H](O)CN2Cc2cccc(F)c2)O1)NCc1ccncc1
  12 | 6 | 6.3
- O=C(c1cccnc1)N1C[C@H]2[C@@H](c3ccccc31)[C@H](CO)N2C(=O)Nc1cccc(F)c1
  3 | -1 | 3.7
- C[C@H]1CN([C@@H](C)CO)C(=O)CCCn2cc(nn2)CO[C@@H]1CN(C)Cc1ccccc1C(=O)O
  7 | 4 | 2.6
- CO[C@H](CN(C)C(=O)c1ccc2c(c1)OCO2)[C@@H](C)CN([C@@H](C)CO)S(=O)(=O)c1ccc(C)cc1
  -1 | -2 | 1.2
- C[C@@H]1CN([C@H](C)CO)C(=O)c2cc(NC(=O)Nc3cccc4ccccc34)ccc2O[C@@H]1CN(C)S(=O)(=O)c1cccs1
  -3 | -1 | -1.8
- C[C@H](O)C#Cc1ccc([C@@H]2[C@H]3CN(C(=O)c4ccncc4)CCCCN3[C@H]2CO)cc1
  7 | 4 | 2.6
- CN(C)C(=O)c1ccc(-c2ccc([C@@H]3[C@@H](C#N)N(C(=O)C4CCC4)[C@H]3CO)cc2)cc1
  -2 | -2 | 0.3
- CN(Cc1ccccc1F)C[C@H]1[C@@H](c2ccccc2)[C@@H](CO)N1S(C)(=O)=O
  -5 | -4 | -0.9
- O=C(c1cnccn1)N1CC(=O)N2[C@@H](CO)[C@@H](c3ccc(-c4cccc(F)c4)cc3)[C@@H]2C1
  3 | 5 | -1.5
- CN1C(=O)c2cc(NC(=O)C3CCOCC3)ccc2OC[C@@H]2O[C@H](CC(=O)NCc3ccc4c(c3)OCO4)CC[C@H]21
  0 | -4 | 3.4
- CCCNC(=O)N[C@@H]1CC[C@@H](CCn2cc(C3CC3)nn2)O[C@@H]1CO
  11 | 7 | 3.5
- C/C=C/c1cnc2c(c1)C(=O)N([C@H](C)CO)C[C@@H](C)[C@@H](CN(C)C(=O)NC1CCCC1)O2
  8 | 8 | 0.2
- COc1ccc2c3c([nH]c2c1)[C@@H](CO)N(C(=O)Nc1ccc(F)cc1)CC31CN(C(=O)Cc2ccccc2)C1
  ? | . | .
- O=C(C[C@H]1C[C@@H]2c3cc(NS(=O)(=O)c4ccccc4)ccc3O[C@@H]2[C@@H](CO)O1)NCC(F)(F)F
  0 | 4 | -4.6
- CC(C)NC(=O)N1CCCCN2[C@@H](CO)[C@H](c3ccc(C#C[C@H](C)O)cc3)[C@@H]2C1
  25 | 26 | -1.3
- COCC(=O)N(C)C[C@H]1Oc2ncc(C#Cc3ccncc3)cc2C(=O)N([C@H](C)CO)C[C@@H]1C
  3 | 1 | 2.7
- C[C@H](NC(=O)C[C@H]1CC[C@H]2[C@@H](COC[C@@H](O)CN2Cc2ccc(C(F)(F)F)cc2)O1)c1ccccc1
  ? | . | .
- COc1cccc(NC(=O)N2[C@H](CO)[C@H](c3ccccc3)[C@H]2CNCC(C)C)c1
  -2 | -4 | 2.2
- CCNC[C@@H]1[C@H](c2ccccc2)[C@@H](CO)N1C(=O)Cc1ccccn1
  0 | -1 | 1.9
- CCCN(C[C@H]1[C@@H](c2ccccc2)[C@H](CO)N1C(C)=O)C(=O)NC(C)C
  -2 | -2 | -0.1
- CO[C@H]1CC[C@@H]2CCOc3c(C#N)cccc3C(=O)N(C)[C@H](C)C(=O)N(C)C[C@H]1O2
  -2 | -1 | -1.1
- CCCNC(=O)N1CC2(CCN(S(C)(=O)=O)CC2)c2c(n(C)c3cc(OC)ccc23)[C@@H]1CO
  15 | 1 | 13
- O=C([C@@H]1[C@@H](CO)[C@@H]2Cn3c(ccc(-c4cccnc4)c3=O)[C@@H]2N1CC1CC1)N1CCCCC1
  2 | -6 | 8.3
- COc1ccc(NC(=O)N(C)C[C@H]2OCc3ccccc3-c3ccccc3C(=O)N([C@@H](C)CO)C[C@@H]2C)cc1
  7 | 2 | 5.0
- CC=Cc1ccc2n(c1=O)C[C@@H]1[C@@H](CO)[C@H](C(=O)NCc3ccc(F)cc3)N(C)[C@H]21 (mixture of isomers)
  0 | 1 | -0.8
- CN1C(=O)c2cc(NC(=O)c3cc(F)cc(F)c3)ccc2OC[C@@H]2O[C@@H](CC(=O)O)CC[C@@H]21
  -4 | -8 | 3.9

Laid out differently: 5 of the compounds above
SMILES | DUX4 txn inh | DUX4 txn inh difference | DUX4 txn inh control
O=C(c1cnccn1)N1CC(=O)N2[C@@H](CO)[C@@H](c3ccc(-c4cccc(F)c4)cc3)[C@@H]2C1 | 3 | 5 | -1.5
COc1cccc(NC(=O)N2[C@H](CO)[C@H](c3ccccc3)[C@H]2CNCC(C)C)c1 | -2 | -4 | 2.2
C[C@H]1CN([C@@H](C)CO)C(=O)CCCn2cc(nn2)CO[C@@H]1CN(C)Cc1ccccc1C(=O)O | 7 | 4 | 2.6
C[C@H](O)C#Cc1ccc([C@@H]2[C@H]3CN(C(=O)c4ccncc4)CCCCN3[C@H]2CO)cc1 | 7 | 4 | 2.6
CCCNC(=O)N1CC2(CCN(S(C)(=O)=O)CC2)c2c(n(C)c3cc(OC)ccc23)[C@@H]1CO | 15 | 1 | 13

Next structures:
Order of values – DUX4 txn inh | DUX4 txn inh difference | DUX4 txn inh control
- CNC[C@H]1Oc2ccc(NS(=O)(=O)c3c(C)noc3C)cc2CC(=O)N([C@@H](C)CO)C[C@H]1C
  1 | -1 | 2.1
- CCC(=O)N1CCCCN2[C@H](CO)[C@@H](c3ccc(C#Cc4ccccc4)cc3)[C@@H]2C1
  -8 | -10 | 2.2
- C[C@@H]1CN([C@H](C)CO)C(=O)CCCn2nncc2CO[C@@H]1CN(C)Cc1ccc2c(c1)OCCN2C
  7 | 9 | -2.2
- COc1ccc2c3c([nH]c2c1)[C@@H](CO)N(C)CC31CCN(C(=O)C2CC2)CC1
  24 | 17 | 6.5
- O=C(C[C@H]1CC[C@H]2[C@@H](COC[C@@H](O)CN2C(=O)Nc2ccc(Cl)cc2)O1)NCc1ccncn1
  11 | -1 | 12
- CCCNC(=O)N1C[C@@H](O)COC[C@@H]2O[C@H](CC(=O)N[C@H]3CCN(Cc4ccccc4)C3)CC[C@H]21
  7 | 5 | 2.3
- COc1ccc2c3c([nH]c2c1)[C@H](CO)N(C(=O)c1ccncc1)CC31CN(C(=O)CC2CC2)C1
  9 | 3 | 6.3
- N#C[C@@H]1[C@@H](c2ccccc2-c2ccccc2F)[C@@H](CO)N1C(=O)C1CCC1
  -1 | 6 | -6.9
- O=C(Nc1ccc2c(c1)[C@@H]1C[C@@H](CC(=O)N3CCc4ccccc4C3)O[C@H](CO)[C@@H]1O2)c1ccc2c(c1)OCO2
  ? | . | .
- CN(C)CC#Cc1ccc([C@@H]2[C@H](CO)N3C(=O)CN(C(=O)c4cccc(F)c4)C[C@@H]23)cc1
  15 | 2 | 13
- Cc1cccc(S(=O)(=O)N(C)C[C@H]2OCc3ccccc3-c3ccccc3C(=O)N([C@H](C)CO)C[C@H]2C)c1
  2 | -5 | 7.3
- CN1C(=O)c2cc(NC(=O)c3ccc(F)c(F)c3)ccc2OC[C@H]2O[C@@H](CC(=O)N[C@@H]3CCN(Cc4ccccc4)C3)CC[C@@H]21
  -1 | -2 | 1.3
- C[C@@H]1CN([C@H](C)CO)S(=O)(=O)c2ccc(/C=C/c3ccccc3)cc2O[C@H]1CN(C)C(=O)NC1CCCCC1
  ? | . | .
- COc1cccc(S(=O)(=O)N(C)C[C@H]2OCc3ccccc3-c3ccccc3C(=O)N([C@@H](C)CO)C[C@H]2C)c1
  -4 | -4 | -0.2
- COc1cccc(CNC(=O)C[C@@H]2CC[C@@H]3[C@@H](COc4ccc(NC(=O)c5cccs5)cc4C(=O)N3C)O2)c1
  -6 | -6 | -0.6
- CO[C@H]1CN(C)C(=O)c2cc(NS(=O)(=O)CC(F)(F)F)ccc2OC[C@@H](C)N(Cc2cccnc2)C[C@H]1C
  1 | -1 | 1.3
- CO[C@H](CN(C)S(=O)(=O)c1ccc(C)cc1)[C@@H](C)CN(C(=O)Nc1ccccc1F)[C@H](C)CO
  -1 | -5 | 3.9
- Cc1noc(C)c1NC(=O)Nc1ccc2c(c1)C(=O)N(C)[C@H]1CC[C@H](CC(=O)N[C@H]3CCN(Cc4ccccc4)C3)O[C@@H]1CO2
  -2 | -3 | 0.7
- C/C=C/c1ccc(C2[C@H]3CNC[C@@H]2N3Cc2cc(OC)cc(OC)c2)cc1 (stereo not given in full)
  13&8 | 15&7 | -2.1&1.2
- C[C@H](CO)N1C[C@H](C)[C@@H](CN(C)S(=O)(=O)c2ccc(F)cc2)Oc2ccc(NS(=O)(=O)c3cn(C)cn3)cc2C1=O
  -2 | -2 | -0.3
- C[C@@H]1CN([C@@H](C)CO)C(=O)c2cc(NS(=O)(=O)c3ccc(Cl)cc3)ccc2O[C@@H](C)CCCCO[C@@H]1CN(C)Cc1ccncc1
  -3 | -3 | 0.0
- COc1ccccc1C#Cc1ccc2c(c1)[C@@H]1[C@@H](CCN1C(=O)c1cccc(F)c1)[C@H](CO)N2
  -6 | -15 | 9.5
- C[C@H](CO)N1C[C@H](C)[C@@H](CN(C)C(=O)c2cccc(F)c2)Oc2cc(-c3cncnc3)ccc2S1(=O)=O
  -2 | -1 | -1.1
- CO[C@@H]1CN(C)C(=O)c2cc(NS(=O)(=O)c3cn(C)cn3)ccc2OC[C@@H](C)NC[C@@H]1C
  8 | 4 | 3.8
- C/C=C/c1ccc2c(c1)O[C@@H](CN(C)Cc1ccccc1F)[C@@H](C)CN([C@H](C)CO)S2(=O)=O
  2 | 3 | -0.9
- COc1ccc(C#Cc2ccc([C@@H]3[C@H](CO)N4CCCCN(C)C[C@@H]34)cc2)cc1
  -24* | -35* | 11*
- CC(=O)N1[C@H](CN(C(=O)c2cccc(F)c2)C(C)C)[C@H](c2ccccc2)[C@@H]1CO
  2 | 4 | -2.1
- CO[C@H]1CN(C)C(=O)c2ccc(NS(C)(=O)=O)cc2OC[C@H](C)N(Cc2ccccn2)C[C@@H]1C
  6 | 3 | 2.9
- O=S(=O)(c1cccc(F)c1)N1CC[C@@H]2[C@@H](CO)Nc3ccc(-c4cccc(F)c4)cc3[C@@H]21
  ? | . | .
- C[C@@H](O)C#Cc1ccc([C@H]2[C@H](CO)N3CCCCN(S(=O)(=O)c4ccccc4)C[C@@H]23)cc1
  24 | 12 | 12
- O=C(NC[C@H]1[C@H](c2ccccc2)[C@@H](CO)N1Cc1ccccn1)C1CCCC1
  -1 | -5 | 3.3
- C[C@@H]1CCCCO[C@H](CN(C)C(=O)NC2CCCCC2)[C@@H](C)CN([C@H](C)CO)C(=O)c2cc(NC(=O)CCC(F)(F)F)ccc2O1
  5 | 3 | 2.0
- Cc1noc(C)c1NC(=O)N[C@H]1CC[C@@H](CC(=O)N2CCN(C)CC2)O[C@H]1CO
  1 | -1 | 1.4
- CO[C@H]1CN(C)C(=O)c2ccc(NC(=O)c3nc4ccccc4s3)cc2OC[C@H](C)N(Cc2cccnc2)C[C@@H]1C
  ? | . | .
- CO[C@@H]1CN(C)C(=O)c2ccc(NC(C)=O)cc2OC[C@@H](C)N(C(=O)C2CCOCC2)C[C@@H]1C
  -1 | -1 | 0.3
- O=C(C[C@@H]1CC[C@H]2[C@@H](COC[C@H](O)CN2S(=O)(=O)c2ccc(F)cc2)O1)NCCN1CCCCC1
  8 | 4 | 3.8
- CC(C)NC(=O)Nc1ccc2c(c1)C(=O)N(C)[C@H]1CC[C@H](CC(=O)NCC3CCCCC3)O[C@H]1CO2
  6 | -3 | 8.8
- Cc1ccccc1-c1ccc([C@H]2[C@H](CO)N3CCCCN(CC4CC4)C[C@@H]23)cc1
  6 | 6 | 0.2
- C/C=C/c1ccc([C@H]2[C@@H](CO)N(Cc3ccccn3)[C@@H]2CNC(=O)CC)cc1
  -1 | -3 | 2.4
- C[C@@H]1CN([C@@H](C)CO)C(=O)c2c(c3ccccc3n2C)-c2ccccc2CO[C@@H]1CN(C)Cc1ccncc1
  0 | 2 | -2.2
- Cc1noc(C)c1S(=O)(=O)Nc1ccc2c(c1)C(=O)N([C@@H](C)CO)C[C@@H](C)[C@@H](CN(C)C(=O)CCC(F)(F)F)OCCCC[C@@H](C)O2
  -1 | 1 | -2.3
- Cc1ccc(-c2cnc3c(c2)C(=O)N([C@@H](C)CO)C[C@@H](C)[C@H](CN(C)CC2CCCCC2)O3)cc1
  2 | -1 | 3.5

In a second layout: results already given
Compound,DUX4 txn inh,DUX4 txn inh difference,DUX4 txn inh control
Cc1ccc(-c2cnc3c(c2)C(=O)N([C@@H](C)CO)C[C@@H](C)[C@H](CN(C)CC2CCCCC2)O3)cc1,2,-1,3.5
C[C@@H]1CCCCO[C@H](CN(C)C(=O)NC2CCCCC2)[C@@H](C)CN([C@H](C)CO)C(=O)c2cc(NC(=O)CCC(F)(F)F)ccc2O1,5,3,2.0
